Cruzain Triton = cruzain (T. cruzi) inhibition with detergent. P25779. purified cruzain, Z-FR-AMC fluorescence, 0.01% Triton. Potency, µM, for the others: max response, negative = inhibition, usual class: inhibitors. actives 0.43% (n = 200,000). AID 1478; active means well fitted curve in the direction sought with a large enough effect; inconclusive means small, poorly fitted or top-dose-only effect, or another doubt; inactive means no such curve, though single readings can be large; an effect the other way counts as inactive or inconclusive;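 further: plate controls were neutral wells for no effect and buffer without enzyme for full effect; nearly all actives have a fitted effect of over 40% in size; top concentration of the series not given in the record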
Target sequence (P25779 123-467 limits assumed): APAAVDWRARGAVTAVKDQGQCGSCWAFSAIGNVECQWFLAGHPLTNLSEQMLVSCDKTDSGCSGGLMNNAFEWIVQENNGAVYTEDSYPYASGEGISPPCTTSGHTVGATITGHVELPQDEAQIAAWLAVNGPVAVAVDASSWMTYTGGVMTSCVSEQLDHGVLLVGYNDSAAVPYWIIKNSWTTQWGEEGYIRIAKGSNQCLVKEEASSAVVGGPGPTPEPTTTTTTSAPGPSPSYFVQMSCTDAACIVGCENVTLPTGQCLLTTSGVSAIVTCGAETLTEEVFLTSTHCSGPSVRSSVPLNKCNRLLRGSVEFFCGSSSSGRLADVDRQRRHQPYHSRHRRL
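Z-FR-AMC hydrolysis (2 uM substrate) by cruzain (1.5 nM) monitored kinetically at ex 360/em 450 nm after 15 min room-temperature compound exposure; 0.01% Triton X-100, pH 5.5, 5 mM DTT.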
Marburg entry inh = Marburg virus entry inhibition. Potency, µM (series often up to 37.8 µM), without a hit: at the top dose activity change, negative = inhibition, actives largely listed as inhibitors. AID 540276. actives 1.8% (n = 300,000). Marburg virus pseudotyped entry inhibition, cell reporter; control for the full effect not named in the record; about a third of the inactives were read at about 46 µM; active = well fitted inhibition curve with a large enough effect; inconclusive = small, poorly fitted or top-dose-only effect, or effect the other way; inactive = flat fitted curve, though single readings scatter; tested in HEK293 cells; about a fifth of its hits are not listed in these tables; further: on the % scale 0 is the no-effect control and ±100 the full control effect; luciferase read-out
Lassa entry inh = Lassa virus entry inhibition; Potency, µM (highest dose often 37.9 µM), without a hit: at the top dose activity change, negative = inhibition, most hits filed as inhibitors; Lassa virus pseudotype entry inhibition, cell reporter; control for the full effect not named in the record; AID 540256; actives 1.2% (n = 300,000); active means well fitted inhibition curve with a large enough effect; inconclusive means small, poorly fitted or top-dose-only effect, or effect the other way; inactive means flat fitted curve, though single readings scatter; tested in HEK293 cells; further: on the % scale 0 is the no-effect control and ±100 the full control effect; nearly all actives have a fitted effect of over 50% in size; luciferase read-out
Cruzain noTriton = inhibitors of Trypanosoma cruzi cruzain without detergent. purified cruzain, Z-FR-AMC fluorescence, no detergent. Potency, µM, for inactives: max response, negative = inhibition, usual class: inhibitors. actives 2.3% (n = 200,000). AID 1476; active means well fitted curve in the direction sought with a large enough effect; inconclusive means small, poorly fitted or top-dose-only effect, or another doubt; inactive means no such curve, though single readings can be large; an effect the other way counts as inactive or inconclusive;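 further: plate controls were enzyme without inhibitor for no effect and buffer without enzyme for full effect; nearly all actives have a fitted effect of over 40% in size; top concentration of the series not given in the record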
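Detergent-free condition (0.00005% Triton X-100) in acetate buffer pH 5.5 with DTT. 1.5 nM enzyme and compound were pre-mixed 15 min, then 2 uM Z-FR-AMC substrate added; reaction progress from fluorescence change between first and third reads (60 s).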
NS1 inh = blocks influenza NS1 protein function. S. cerevisiae slowed by influenza A NS1, growth recovery by OD600. Potency, µM (top dose mostly 46.1 µM), for the others: at the top dose activity, positive = more growth. actives 0.4% (n = 270,000). AID 2326; further: actives are rising curves; nearly all actives have a fitted effect of over 50% in size
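In this qHTS, NS1 from influenza A is expressed in budding yeast, where it slows growth. Cells are switched from glucose to 2% galactose medium (pH 6.0, -URA), treated with compound, and growth recovery is read at OD600.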
2A StopGo = lowers the luciferase signal of an FMDV 2A StopGo reporter; human cells with a luciferase reporter of 2A StopGo recoding; control for the full effect not named in the record; Potency, µM (series often up to 57.9 µM), inactives show at the top dose signal change, negative = less light; actives 1.2% (n = 410,000); AID 1159524; active = well fitted falling curve with a large enough effect; inconclusive = small, poorly fitted or top-dose-only effect; inactive = no such curve, though single readings can be large or run the other way; tested in HEK293T cells; further: on the % scale 0 is the no-effect control and ±100 the full control effect; nearly all actives have a fitted effect of over 45% in size; luciferase light after 4 h
SARS PLP yeast = SARS-CoV PLP inhibition in yeast. actives 0.19% (n = 330,000). Potency, µM (top dose mostly 32.9 µM), inactives show top-dose activity, positive = growth rescue. S. cerevisiae expressing SARS-CoV PLpro, growth rescue; control for the full effect not named in the record. AID 485353; further: 0% is about no effect; nearly all actives have a fitted effect of over 55% in size; growth read by luminescence after 48 h
RE007 growth inh = less growth of the S. pombe RE007 Vpr strain | S. pombe RE007 Vpr strain, BacTiter-Glo ATP luminescence, 24 h; control for the full effect not named in the record | Potency, µM (titrated, usually from 92.2 µM), for the others: top-dose activity change, negative = less growth | actives 0.21% (n = 360,000); active = well fitted falling curve with a large enough effect; inconclusive = small, poorly fitted or top-dose-only effect; inactive = no such curve, though single readings can be large or run the other way;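 further: on the % scale 0 is the no-effect control and ±100 the full control effect; nearly all actives have a fitted effect of over 50% in size; the assay follows cell death caused by Vpr and the record does not say whether a fall means rescue or toxicity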
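Fission yeast strain RE007, carrying one chromosomally integrated HIV-1 vpr copy, was seeded at OD 0.01 in PMG+AL medium with 23 nL pinned compound. After 24 h at 30 °C and 99% humidity, viability was read by BacTiter-Glo luminescence.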
An asterisk follows results filed as active; ? = inconclusive; . = not tested or not shown; [ ] = dose if it differs, or a comment. Unless noted, the call rests on the fitted dose curve; in most records, active means well fitted rising curve with a large enough effect; inconclusive means small, poorly fitted or top-dose-only effect; inactive means no such curve, though single readings can be large or run the other way. Potency means the concentration at half of the fitted maximal effect.

Below each SMILES – Cruzain Triton, Marburg entry inh, Lassa entry inh, Cruzain noTriton, NS1 inh, 2A StopGo, SARS PLP yeast, RE007 growth inh
CCOc1ccc(CN(C)Cc2cc(=O)oc3cc(C)c(Cl)cc23)cc1
    ., -19%[46.1 µM], 20%[46.1 µM], ., -1%, -23%, 3%, -2%
CCSc1nc2c(c(=O)[nH]1)C(c1cccnc1)C(C(=O)OC(C)C)=C(C)N2 (stereo unspecified)
    -1.2%, ?, -15%, 9%, -16%, -1%, 10%, -10%
CCOC(=O)C1CCCN(C(=O)c2ccc(C)c(NC(=O)c3nsc4ccccc34)c2)C1 (stereo unspecified)
    0.7%, ., 20%[46.1 µM], 18%, ., -28%, ., .
Cc1cc(C(=O)N2CCN(c3cc(Cl)ccc3C)CC2)on1
    ., ., ., ., -51%, 0%, -7%, 4%
Cc1cc(NC(=O)CSc2nc3cc(C(=O)NCCCOC(C)C)ccc3c(=O)n2Cc2ccco2)no1
    ., ?, ?, ., ., -15%, 0%, 14%
Cc1c2cnn(CC(=O)N3CCOCC3)c(=O)c2c(C)n1Cc1ccccc1F
    ., ., ., ., 11%, 0%, -6%, -7%
COc1cc(NS(=O)(=O)c2ccc(Br)cc2)c(OC)cc1NC(=O)c1ccco1
    -3.0%, ?, 27%, -18%, -38%, 12%, -7%, 11%
CCOc1ccc(CNC(=O)C2CCN(S(=O)(=O)c3ccc4c(c3)CCCC(=O)N4)CC2)cc1
    ., ., ., ., 3%, -23%, ?, -2%
Clc1cccc(-c2cc3nc4c(c(N5CCN(c6cnccn6)CC5)n3n2)CCCC4)c1
    -14%, 27%, 25%, ?, 8%, ?, -1%, -18%
O=C(COC(=O)CCC(=O)c1ccccc1)NCCc1ccccc1
    ., ?, 3%, ., ., 5%, -1%, 2%
CC(C)(C)C(=O)COC(=O)CCc1nc2ccccc2[nH]c1=O
    ., -3%[46.1 µM], 3%, ., 3%, -5%, 1%, 17%
COc1ccc(N=C2C(=Nc3ccc(OC)cc3)N(c3ccc(N(C)C)cc3)C(=S)N2c2ccc(OC)cc2)cc1
    -5.0%, ?, -5%, 7.9µM*, 0%, 16%, -11%, -2%
Cc1cc(C)c(C(=O)COC(=O)c2cccnc2Cl)c(C)c1
    ., ?, 2%[46.1 µM], ., ., -21%, -1%, -7%
O=C(Nc1ccc(C(F)(F)F)cc1)c1cc(-c2cccnc2)nc2ccc(Br)cc12
    0.9%, ?, -3%, -2%, 1%, 1%, 7%, -5%
Nc1cc(N2CCOCC2)c(Cl)cc1[N+](=O)[O-]
    ., ?, 4%, ., ., 0%, 0%, 2%
COc1ccc(S(=O)(=O)Cc2ccc(C(=O)N3CCCC3)o2)cc1
    6.0%, ., ., -2%, 1%, 0%, 2%, -7%
O=C(O)C(CO)(c1ccccc1)c1ccccc1
    ., ., ., ., 1%, -8%, 0%, 1%
O=C(CSc1nc(=O)[nH]c2c1CCCC2)NCc1ccccc1
    0.6%, ., 12%[46.1 µM], -3%, ., -25%, ., .
CC(C)(C)CC(C)(C)c1ccc(O)c(Cc2ccc(Cl)cc2Cl)c1
    7.1%, ., ., ?, ., 28µM*, ., 2%
CC1CN2c3ccc([N+](=O)[O-])cc3CC3(C(=O)N(C)C(=O)N(C)C3=O)C2C(C)O1 (stereo unspecified)
    ., 15%[46.1 µM], 18%[46.1 µM], ., 4%, -13%, -1%, 5%
Fc1ccccc1CNCC1CCCO1 (stereo unspecified)
    ., ?, 7%, ., -3%, -12%, 3%, 5%
COc1ccc(NC(=O)CN(C)C(=O)Cc2ccc3c(c2)OCCO3)cc1
    ., 6%, 1%, ., ., -12%, 4%, 12%
O=C(NCC(c1ccco1)N1CCN(c2ccccc2F)CC1)C(=O)NC1CCCC1 (stereo unspecified)
    ., 2%, -23%, ., ., -7%, -2%, -2%
O=C(Cn1cnc2c(cnn2-c2ccc(Cl)cc2)c1=O)N1CCN(c2ccccc2)CC1
    ., ?, ?, ., ., -21%, 0%, -7%
CCOc1ccc(-n2nnc3c(=O)n(CC(=O)N4CCCc5ccccc54)cnc32)cc1
    -0.3%, 2%, 16%, -8%, -95%, -19%, 14%, 1%
CC(Oc1ccc(Cl)cc1Cl)C(=O)NC(Cc1ccccc1)C(=O)O (stereo unspecified)
    ., -8%[46.1 µM], -2%[46.1 µM], ., ., -4%, ., 4%
NC(=O)C1(N2CCCCC2)CCN(C(=O)c2cccn3c(=O)c4cc(Cl)ccc4nc23)CC1
    -1.8%, -14%, 6%, 21%, -5%, -11%, -10%, -13%
NC(=O)N/N=C/C=C/c1ccccc1
    ., ?, 19%, ., -2%, 26%, -1%, 7%
CN1CCN(c2ccc([N+](=O)[O-])c(N)c2)CC1
    -6.7%, 0%, 25%, 14%, 4%, -12%, 13%, 2%
Cc1cccc(NC(=O)c2c(-c3ccccc3)noc2C)n1
    ., 0%, 1%, ., ., -24%, 2%, -14%
CCn1c(=O)cc(SCC(=O)NCc2ccco2)c2ccccc21
    -2.2%, ?, ?, 5%, 1%, -5%, 10%, 7%
COc1ccc(-c2cc(C(F)(F)F)nc(SCC(=O)N3CCOCC3)n2)cc1OC
    0.9%, -7%, -26%, ?, -13%, -25%, 1%, 12%
Cc1ncoc1C(=O)N1CCCC(C(=O)c2ccc(-c3ccccc3)c(F)c2)C1 (stereo unspecified)
    ., ., ., ., -30%, 0%, -6%, 8%
Cc1nnc(Cl)c2nn(-c3ccccc3)c(C)c12
    3.8%, 4%, 8%, -2%, 10%, -10%, -10%, -8%
O=C(COC(=O)c1cccc(Br)c1)Nc1ccc2[nH]c(=O)[nH]c2c1
    ., ?, 9%, ., ., 5%, -9%, 3%
CCCN1CCN(CC(=O)Nc2nnc(C)s2)CC1
    ., ., ., ., 10%, 4%, 0%, 16%
O=C(O)CCNc1nc(-c2ccccc2)c2cc(Br)ccc2n1
    ., ., ., ., 10%, -5%, 0%, 5%
COC(=O)c1cccc(NC(=O)CSc2nnc(COc3cccc(C)c3)n2C)c1
    -3.2%, 22%, 21%, 7%, -7%, -3%, 2%, 19%
COc1ccccc1CN1CCC(CNC(=O)c2cnn(-c3ccccc3Cl)c2C2CCN(C(=O)OC(C)(C)C)CC2)CC1
    -0.5%, ., -21%[46.1 µM], -4%, ., -27%, ., .
COc1ccc(OC)c(CN2C(=O)CCC2(C)C(=O)NC2CCCCCC2)c1 (stereo unspecified)
    -3.2%, 18%, 8%, 17%, -1%, 34%[activator], 2%, 1%
COc1ccc(C2=NN(c3nc(C)cc(C)n3)C(=O)C2)cc1
    ., 9%[46.1 µM], ?, ., 9%, 9%, 1%, 0%
Cc1cc(C(=O)CN2CCC(C)CC2)c(C)n1-c1ccccc1F
    -0.5%, ?, ?, -10%, -5%, ?, 28%, -5%
CN(C)S(=O)(=O)N1CCCC(C(=O)c2ccc(-c3ccccc3)c(F)c2)C1 (stereo unspecified)
    ., ?, ?, ., -10%, -30%, -2%, 2%
CCN(CC)S(=O)(=O)c1cc(NC(=O)c2cccc(N3C(=O)CCC3=O)c2)ccc1Cl
    ., 12%, -21%, ., ., ?, 3%, ?
COc1ccc(Cl)cc1NC(=O)C1CCCN(c2cc(C)nc3ncnn23)C1 (stereo unspecified)
    -0.8%, 4%, -5%, ?, 5%, -15%, 6%, -15%
Cc1c(CC(=O)NCC(=O)O)c(=O)oc2cc3c(cc12)CCC(C)(C)O3
    ., ., ., ., 4%, 6%, 0%, 5%
Oc1ccc(/C=N/NC(=S)N/N=C/c2ccc(O)cc2)cc1
    ., ., ., ., 17%, ?, 0%, -11%
CCN(NC(=O)C(O)(c1ccccc1)c1ccccc1)C(=O)c1ccccc1
    0.6%, 5%, 0%, -6%, -2%, 0%, 14µM*, 10%
CCN(CC)C(=O)CSc1nnc2nnc3cc(C)ccc3n12
    ., -13%[46.1 µM], 3%[46.1 µM], ., 0%, -18%, 2%, -6%
COc1cccc(-n2c(=O)c3c4c(sc3n(Cc3ccccc3C#N)c2=O)CCCC4)c1
    -1.7%, -16%[46.1 µM], 4%[46.1 µM], 8%, ., -14%, ., .
COc1cccc(C(=O)N2CCCC(Nc3ccc(C)c(C)c3)C2)c1 (stereo unspecified)
    ., -1%[46.1 µM], -24%[46.1 µM], ., -8%, -12%, 3%, 6%
COc1ccccc1NS(=O)(=O)c1ccccc1C#N
    2.0%, -14%, 6%, -8%, -5%, ., 1%, 0%
N#CC1=C(N)OC2=C(C(=O)CCC2)C1c1ccccc1 (stereo unspecified)
    3.2%, ?, -8%, -6%, 1%, 8%, 1%, 14%
CCOC(=O)c1sc(C)c2c1NC(C)(c1cccs1)NC2=O (stereo unspecified)
    -9.7%, ?, -50%[14.3 µM], -11%, ?, -8%, -4%, -9%
O=C(Nc1cccc(O)c1)c1cccc(S(=O)(=O)N2CCCCCC2)c1
    ., ?, ?, ., 5%, 4%, 8%, -6%
O=C(c1ccoc1)N1CCC(CO)(CCc2ccccc2)CC1
    ., 8%[46.1 µM], 1%[46.1 µM], ., -4%, 14%, -1%, 13%
CCCCNC(=O)c1cc(C)nc2ccccc12
    ., ., ., ., 0%, -6%, 0%, -13%
Cc1ccc(-c2cc(C(=O)NCc3ccccn3)c3ccccc3n2)cc1C
    -9.1%, ?, ?, 1%, -9%, 17%, -15%, ?
Cc1cc(C)c2oc(C(=O)Nc3nc4ccc(Cl)cc4s3)cc(=O)c2c1
    -1.3%, -5%[46.1 µM], 3%[46.1 µM], -9%, ., -6%, ., .
CC(=O)c1nnn(-c2c(F)cccc2F)c1C
    ., ., ., ., 5%, 21%, -1%, 0%

Screening data: PubChem, National Center for Advancing Translational Sciences (NCATS)
